FGF22 binding: FGF22 (human) thermal shift binding | recombinant FGF22 thermal shift, SYPRO orange fluorescence; percent of sucrose octasulfate shift, DMSO zero | AID 651658 | Q9HCT0 | 1.5% of 340,000 active | calls only at 9.99 µM;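 active means melting point raised past a set limit in the mean and every replicate; three in four hits are not shown here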
Target sequence (Q9HCT0 whole entry, looked up): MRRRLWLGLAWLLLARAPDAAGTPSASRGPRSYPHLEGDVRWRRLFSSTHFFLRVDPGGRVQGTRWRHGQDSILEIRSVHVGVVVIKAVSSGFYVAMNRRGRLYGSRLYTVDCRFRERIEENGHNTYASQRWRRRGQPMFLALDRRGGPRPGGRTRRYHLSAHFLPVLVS
Calls only; i = inactive; + = active, no number. Only part of the results is shown; count on the stated rates, not on these rows.

SMILES	FGF22 binding
CCCC(=O)Nc1ccc2c(c1)C(=O)N(C)[C@@H]1CC[C@@H](CC(=O)NCC(F)(F)F)O[C@H]1CO2	i
COc1ccc(-c2ccc3c(c2)[C@H]2[C@H](CCN2S(=O)(=O)c2ccccc2F)[C@H](CO)N3C)cc1	i
CNC(=O)C[C@@H]1CC[C@H]2[C@@H](COC[C@H](O)CN2Cc2ccc(Cl)c(Cl)c2)O1	i
COc1ccc(S(=O)(=O)N(C)C[C@H]2OCCCC[C@@H](C)Oc3ccc(NS(=O)(=O)c4c(C)noc4C)cc3C(=O)N([C@@H](C)CO)C[C@H]2C)cc1	i
C[C@H](CO)N1C[C@H](C)[C@@H](CN(C)Cc2ccc(Oc3ccccc3)cc2)Oc2ccc(NC(=O)Cc3cn(C)c4ccccc34)cc2C1=O	i
CCCNC(=O)N1[C@H](CN(C)C(C)=O)[C@H](c2ccc(C3=CCCC3)cc2)[C@@H]1CO	i
C[C@H](CO)N1C[C@H](C)[C@@H](CN(C)Cc2cccnc2)Oc2ncc(/C=C/c3ccccc3)cc2C1=O	i
COc1ccc(CN(C)C[C@H]2Oc3ccc(NC(=O)C4CCCCC4)cc3CC(=O)N([C@@H](C)CO)C[C@H]2C)cc1	+
Cc1noc(C)c1NC(=O)Nc1ccc2c(c1)CC(=O)N([C@@H](C)CO)C[C@H](C)[C@H](CN(C)Cc1ccc3c(c1)OCO3)O2	i
COc1ccc(CNC(=O)C[C@@H]2CC[C@@H](NC(=O)CN(C)C)[C@H](CO)O2)cc1	i
O=C(NCC[C@H]1CC[C@@H](NC(=O)c2cccnc2)[C@@H](CO)O1)Nc1ccc(F)cc1	i
CN1c2ccc(-c3cccc(C#N)c3)cc2[C@H]2[C@H](CCN2C(=O)C2CCC2)[C@@H]1CO	i
CNC[C@@H]1Oc2c(N)cccc2C(=O)N([C@@H](C)CO)C[C@H]1C	i
N#Cc1ccc(-c2ccc([C@@H]3[C@H]4CN(C(=O)Nc5ccc(F)cc5)CCCCN4[C@H]3CO)cc2)cc1	i
C[C@@H]1CN([C@@H](C)CO)C(=O)c2cccc(NC(=O)c3nc4ccccc4s3)c2O[C@@H]1CN(C)C(=O)Nc1cccc2ccccc12	i
Cc1ccc(-c2ccc3c(c2)O[C@H](CN(C)C(=O)C2CCC2)[C@H](C)CN([C@@H](C)CO)S3(=O)=O)cc1	i
CN1C(=O)c2cc(NC(=O)c3ccccc3F)ccc2OC[C@@H]2O[C@H](CC(=O)NCc3ccc4c(c3)OCO4)CC[C@@H]21	i
C=CCN1C(=O)[C@@]2(O[C@@H](CCO)[C@H]([Si](C)(C)c3ccc(OC)cc3)[C@H]2C)c2cc(NC(C)=O)ccc21	i
Cc1noc(C)c1NC(=O)NCC[C@@H]1CC[C@@H](NC(=O)c2ccccc2)[C@H](CO)O1	i
C[C@H](CO)N1C[C@H](C)[C@H](CN(C)Cc2ccncc2)Oc2cc(-c3cncnc3)ccc2S1(=O)=O	i
COC(=O)C[C@@H]1C[C@@H]2c3cc(NS(C)(=O)=O)ccc3O[C@@H]2[C@H](CO)O1	i
C[C@@H]1CN([C@@H](C)CO)C(=O)CCCn2nncc2CO[C@@H]1CN(C)Cc1ccccc1	i
CN(C)C(=O)C[C@@H]1CC[C@H]2[C@@H](COc3ccc(NS(=O)(=O)c4cccc(F)c4)cc3C(=O)N2C)O1	i
CN(C)C(=O)[C@H]1[C@H](CO)[C@H]2Cn3c(ccc(-c4cncnc4)c3=O)[C@@H]1N2C(=O)NC1CCCC1	i
CCCNC(=O)[C@@H]1[C@@H](CO)[C@@H]2Cn3c(ccc(C4=CCCCC4)c3=O)[C@H]1N2	i
CCCCNC(=O)C[C@H]1C[C@@]2(C(=O)OC)C(=C[C@H](COCc3ccccc3)O[C@@H]2C)N(Cc2ccc3c(c2)OCO3)C1=O	i
C/C=C/c1ccc([C@@H]2[C@H](C#N)N(C(=O)Cc3ccccn3)[C@H]2CO)cc1	i
C[C@H](CO)N1C[C@H](C)[C@H](CN(C)C(=O)Nc2ccc3c(c2)OCO3)OCCCC[C@H](C)Oc2ccc(NC(=O)Cc3ccccc3)cc2C1=O	i
CC(C)C#Cc1cnc2c(c1)C(=O)N([C@H](C)CO)C[C@H](C)[C@@H](CN(C)C(=O)Cc1ccncc1)O2	i
COc1cc2c(cc1OC)CN(C(=O)[C@H]1[C@@H]3C(=O)O[C@@H](c4ccccc4)[C@@H](c4ccccc4)N3[C@@H](c3ccc(O)cc3)[C@]13C(=O)Nc1ccc(C#CC4(O)CCCCCC4)cc13)CC2	i
CCS(=O)(=O)NCC[C@H]1CC[C@H](NS(=O)(=O)c2cccc(Cl)c2)[C@@H](CO)O1	i
COc1ccc(S(=O)(=O)Nc2ccc3c(c2)C(=O)N([C@H](C)CO)C[C@H](C)[C@@H](CN(C)Cc2ccc(Cl)c(Cl)c2)O3)cc1	i
C/C=C/c1ccc2c(c1)O[C@@H](CN(C)C(=O)Nc1ccc(OC)cc1)[C@H](C)CN([C@@H](C)CO)S2(=O)=O	i
C[C@@H]1CCCCO[C@@H](CN(C)S(=O)(=O)c2ccc(F)cc2)[C@H](C)CN([C@@H](C)CO)C(=O)c2cc(NC(=O)Nc3ccc4c(c3)OCO4)ccc2O1	i
CCC(=O)N1[C@@H]2c3ccc(-c4ccccc4)c(=O)n3C[C@@H]2[C@@H](CO)[C@@H]1C(=O)N1CCCCC1	i
CC(C)NC(=O)N(C)C[C@@H]1OCCCC[C@H](C)Oc2ccc(NC(=O)Cc3ccccc3)cc2C(=O)N([C@@H](C)CO)C[C@H]1C	i
COC(=O)C1=C(C)N(Cc2cccc(C(F)(F)F)c2)C(=NCc2ccc(OC)cc2)NC1c1ccccc1C(F)(F)F (stereo not drawn)	i
CCCNC(=O)Nc1ccc2c(c1)C(=O)N(C)[C@@H]1CC[C@@H](CC(=O)OC)O[C@@H]1CO2	i
COc1cccc(-c2ccc3c(c2)[C@@H]2[C@@H](CCN2S(=O)(=O)c2cccc(OC)c2)[C@@H](CO)N3)c1	i
C[C@@H]1CN([C@H](C)CO)C(=O)c2cc(C#Cc3ccccc3)cnc2O[C@@H]1CN(C)S(=O)(=O)c1ccccc1F	i
C[C@H]1CCCCO[C@H](CN(C)C(=O)CCCN(C)C)[C@@H](C)CN([C@@H](C)CO)C(=O)c2cc(NC(=O)CCC(F)(F)F)ccc2O1	i
CCCNC(=O)N(C)C[C@@H]1Oc2ncc(C#CCC(C)C)cc2C(=O)N([C@H](C)CO)C[C@H]1C	i
CC(C)C#Cc1ccc([C@H]2[C@H]3CN(C(=O)Nc4ccccc4)CCCCN3[C@H]2CO)cc1	i
C[C@H](CO)N1C[C@H](C)[C@H](CN(C)Cc2ccc(C(=O)O)cc2)Oc2ccc(NC(=O)Nc3ccc(C(F)(F)F)cc3)cc2C1=O	i
CCC(=O)N[C@@H]1CC[C@H](CCn2cc(C3CC3)nn2)O[C@@H]1CO	i

Part of the list above, with values ahead of the structure:
FGF22 binding	SMILES
i	COC(=O)C1=C(C)N(Cc2cccc(C(F)(F)F)c2)C(=NCc2ccc(OC)cc2)NC1c1ccccc1C(F)(F)F (stereo not drawn)
i	CCS(=O)(=O)NCC[C@H]1CC[C@H](NS(=O)(=O)c2cccc(Cl)c2)[C@@H](CO)O1
i	COc1ccc(S(=O)(=O)Nc2ccc3c(c2)C(=O)N([C@H](C)CO)C[C@H](C)[C@@H](CN(C)Cc2ccc(Cl)c(Cl)c2)O3)cc1

Next section
SMILES	FGF22 binding
O=C(C[C@@H]1CC[C@@H]2[C@H](COC[C@@H](O)CN2C(=O)c2ccccc2)O1)NCc1cccc(F)c1	i
O=C(O)C[C@@H]1C[C@@H]2c3cc(NC(=O)CC4CC4)ccc3O[C@@H]2[C@H](CO)O1	i
COc1ccc2c3c(n(C)c2c1)[C@H](CO)N(CC1CCOCC1)CC31CCN(C(C)=O)CC1	i
O=C(C[C@@H]1C=C[C@@H](NC(=O)Nc2ccc(C(F)(F)F)cc2)[C@@H](CO)O1)NCc1ccccn1	i
O=C(C[C@@H]1CC[C@@H](NC(=O)C2CCC2)[C@@H](CO)O1)NCc1ccncc1	i
COc1cccc(C(=O)N2C[C@H]3[C@@H](c4ccccc42)[C@H](CO)N3C(C)=O)c1	i
C[C@@H]1CN([C@@H](C)CO)C(=O)c2cccc(NC(=O)Nc3ccc(C(F)(F)F)cc3)c2O[C@H]1CN(C)Cc1ccc(Cl)c(Cl)c1	i
COCC#Cc1cnc2c(c1)C(=O)N([C@H](C)CO)C[C@H](C)[C@H](CN(C)C(=O)CCN1CCCCC1)O2	i
COc1ccc(NC(=O)O[C@H]2[C@H](OC(=O)Nc3ccccc3)[C@H](OC(=O)Nc3ccccc3)[C@@H](OC)O[C@@H]2CO)cc1	i
O=C(NCC(F)(F)F)[C@H]1[C@H](CO)[C@H]2Cn3c(ccc(-c4ccncc4)c3=O)[C@H]2N1Cc1ccncc1	i
Cc1noc(C)c1NC(=O)Nc1ccc2c(c1)C(=O)N([C@H](C)CO)C[C@H](C)[C@@H](CN(C)C(=O)Nc1cccc3ccccc13)OCCCC[C@H](C)O2	i
O=C(NC1CCCC1)[C@H]1[C@H](CO)[C@H]2Cn3c(ccc(-c4cccnc4)c3=O)[C@@H]1N2CC1CC1	i
CC(C)NC(=O)Nc1ccc2c(c1)C(=O)N([C@H](C)CO)C[C@H](C)[C@@H](CN(C)C(=O)Nc1cccc3ccccc13)OCCCC[C@H](C)O2	i
Cc1noc(C)c1NC(=O)N(C)C[C@@H]1Oc2c(NC(=O)c3ccncc3)cccc2C(=O)N([C@@H](C)CO)C[C@H]1C	i
Cc1noc(C)c1S(=O)(=O)N(C)C[C@@H]1OCCCC[C@H](C)Oc2ccc(NC(=O)CCC(F)(F)F)cc2C(=O)N([C@H](C)CO)C[C@@H]1C	i
N#C[C@@H]1[C@H](c2ccc(C#Cc3ccccc3F)cc2)[C@H](CO)N1C(=O)C1CCC1	i
CN(C)Cc1cn(CC[C@@H]2CC[C@@H](NC(=O)Cc3cccnc3)[C@@H](CO)O2)nn1	i
COC(=O)C1=C(C)N(Cc2ccc(C(F)(F)F)cc2)C(=NCc2ccccc2C(F)(F)F)NC1c1ccccc1C(F)(F)F (stereo not drawn)	i
C[C@@H]1CN([C@H](C)CO)S(=O)(=O)c2ccc(C#C[C@@H](C)O)cc2O[C@@H]1CN(C)Cc1cccnc1	i
CCNC(=O)C[C@@H]1CC[C@H]2[C@@H](COc3ccc(NC(=O)Nc4ccc(Cl)cc4)cc3C(=O)N2C)O1	i
COc1ccc(S(=O)(=O)Nc2ccc3c(c2)C(=O)N([C@H](C)CO)C[C@H](C)[C@H](CN(C)S(=O)(=O)c2ccc(OC)cc2)OCCCC[C@@H](C)O3)cc1	i
O=C(Nc1ccc(Cl)c(Cl)c1)N[C@@H]1CC[C@H](CCn2cc(C3CC3)nn2)O[C@H]1CO	i
O=C(c1ccccc1)N1CC[C@@H]2[C@H](CO)Nc3ccc(C#Cc4cccc(F)c4)cc3[C@@H]21	i
COc1cccc(-c2cn(CC[C@@H]3CC[C@H](NS(=O)(=O)c4ccccc4Cl)[C@H](CO)O3)nn2)c1	i
CO[C@@H]1CN(C)C(=O)c2ccc(NC(=O)CC(F)(F)F)cc2OC[C@H](C)N(C(C)=O)C[C@H]1C	i
C[C@@H]1CN([C@H](C)CO)S(=O)(=O)c2ccc(C3=CCCC3)cc2O[C@@H]1CN(C)C(=O)CN(C)C	i
O=C(C1CCC1)N1CCCCN2[C@H](CO)[C@@H](c3ccc(C#CC4CCCC4)cc3)[C@@H]2C1	i
C[C@H]1CN([C@@H](C)CO)C(=O)c2cc(NC(=O)Nc3ccc4c(c3)OCO4)ccc2O[C@H]1CN(C)Cc1ccccc1	i
CC(=O)n1cc([C@@H]2C=C(C(=O)N3CCN(Cc4ccccc4)CC3)O[C@H](OCCCCO)C2)c2ccccc21	i
CN1C(=O)c2cc(NC(=O)C3CCOCC3)ccc2OC[C@@H]2O[C@H](CC(=O)NCC3CC3)CC[C@H]21	i

Some of the entries so far, with values ahead of the structure.
| FGF22 binding | SMILES |
| --- | --- |
| i | O=C(C[C@@H]1C=C[C@@H](NC(=O)Nc2ccc(C(F)(F)F)cc2)[C@@H](CO)O1)NCc1ccccn1 |
| i | O=C(C[C@@H]1CC[C@@H](NC(=O)C2CCC2)[C@@H](CO)O1)NCc1ccncc1 |
| i | COc1cccc(C(=O)N2C[C@H]3[C@@H](c4ccccc42)[C@H](CO)N3C(C)=O)c1 |
| i | C[C@@H]1CN([C@@H](C)CO)C(=O)c2cccc(NC(=O)Nc3ccc(C(F)(F)F)cc3)c2O[C@H]1CN(C)Cc1ccc(Cl)c(Cl)c1 |
| i | COCC#Cc1cnc2c(c1)C(=O)N([C@H](C)CO)C[C@H](C)[C@H](CN(C)C(=O)CCN1CCCCC1)O2 |
| i | COc1ccc(NC(=O)O[C@H]2[C@H](OC(=O)Nc3ccccc3)[C@H](OC(=O)Nc3ccccc3)[C@@H](OC)O[C@@H]2CO)cc1 |

(next part)
SMILES	FGF22 binding
C[C@@H]1CN([C@H](C)CO)C(=O)c2cc(NS(C)(=O)=O)ccc2O[C@@H](C)CCCCO[C@@H]1CN(C)S(=O)(=O)c1cccs1	i
C[C@@H]1CN([C@@H](C)CO)S(=O)(=O)c2ccc(C3=CCCCC3)cc2O[C@@H]1CN(C)C(=O)C1CCC1	i
C[C@H](CO)N1C[C@H](C)[C@H](CN(C)Cc2ccc3c(c2)OCO3)Oc2ccc(N(C)C)cc2CC1=O	i
Cc1noc(C)c1NC(=O)N(C)C[C@H]1Oc2ccc(NC(=O)Cn3cnnn3)cc2CC(=O)N([C@H](C)CO)C[C@@H]1C	i
CCCNC(=O)N1C[C@H]2[C@@H](c3ccccc31)[C@H](CO)N2Cc1ccc2c(c1)OCO2	i
CCC(=O)N[C@@H]1CC[C@H](CC(=O)NCc2ccccc2OC)O[C@H]1CO	i
CC(C)NC(=O)Nc1ccc2c(c1)C(=O)N([C@H](C)CO)C[C@@H](C)[C@H](CN(C)Cc1ccc(C(F)(F)F)cc1)OCCCC[C@@H](C)O2	i
CC(C)CC#Cc1ccc2c(c1)O[C@@H](CN(C)C(=O)Cc1ccccc1)[C@@H](C)CN([C@@H](C)CO)S2(=O)=O	i

High-throughput results: PubChem, Broad Institute
